GALR2 agonist: GALR2 (human) receptor agonism; GALR2-expressing cells, agonist activation read-out; AID 803; activation, %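 (tested at 5 µM)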; actives 0.48% (n = 140,000);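 active = above mean plus 3 SD of all compounds, about 5% in these data, not always enough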;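 note: 0% = vehicle buffer wells and 100% = reference agonist at full effect; tested in CHO reporter cells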
PKD1 inh: PKD1 (human) kinase inhibition; actives 0.056% (n = 200,000); Q15139; PKD1 kinase fluorescence polarization assay; inhibition, %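 (about 10 µM by stock and volumes)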;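 active = inhibition of 50% or more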;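 note: controls were vehicle for no effect and a reference inhibitor for full effect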
Target sequence (Q15139 whole entry, looked up): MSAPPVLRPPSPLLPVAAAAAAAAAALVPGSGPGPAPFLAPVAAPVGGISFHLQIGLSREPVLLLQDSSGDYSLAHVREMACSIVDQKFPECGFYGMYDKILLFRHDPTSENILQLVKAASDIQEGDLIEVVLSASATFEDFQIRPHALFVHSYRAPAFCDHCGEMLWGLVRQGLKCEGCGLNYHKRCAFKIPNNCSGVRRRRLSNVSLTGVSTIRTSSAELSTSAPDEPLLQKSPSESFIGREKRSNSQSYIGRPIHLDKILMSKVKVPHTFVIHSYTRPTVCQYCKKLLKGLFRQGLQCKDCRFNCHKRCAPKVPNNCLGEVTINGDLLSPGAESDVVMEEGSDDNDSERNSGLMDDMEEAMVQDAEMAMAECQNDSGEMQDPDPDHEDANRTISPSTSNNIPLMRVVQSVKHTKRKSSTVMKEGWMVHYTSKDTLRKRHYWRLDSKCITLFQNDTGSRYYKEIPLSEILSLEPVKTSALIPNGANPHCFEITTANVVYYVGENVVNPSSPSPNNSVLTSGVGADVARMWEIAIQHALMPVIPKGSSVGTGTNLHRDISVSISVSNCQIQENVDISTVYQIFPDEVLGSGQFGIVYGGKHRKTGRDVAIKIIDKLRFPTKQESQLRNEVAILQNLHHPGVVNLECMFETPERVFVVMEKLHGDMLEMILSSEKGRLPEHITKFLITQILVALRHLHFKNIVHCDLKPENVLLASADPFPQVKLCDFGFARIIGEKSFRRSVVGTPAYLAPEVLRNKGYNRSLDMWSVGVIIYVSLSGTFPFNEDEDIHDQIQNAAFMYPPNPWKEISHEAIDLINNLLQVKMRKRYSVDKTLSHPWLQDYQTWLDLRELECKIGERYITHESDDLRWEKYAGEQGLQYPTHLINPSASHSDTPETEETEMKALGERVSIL
Insulin prom inh: TRM-6 insulin promoter activity inhibition; inhibition, % at 2 µM; actives 0.9% (n = 130,000); TRM-6 cells (human fetal islet line), insulin promoter-eGFP reporter, imaging; reporter expression induced with tamoxifen; AID 1273;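 active = inhibition above the mean plus 3 SD, with well images judged a real hit on visual review, cut at about 60% in these data, passing the limit was not always enough; inconclusive = inhibition over the cutoff but images rejected on review; inactive = inhibition not above the cutoff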
RGS16-Gao HTS: modulates binding between human RGS16 and Galphao | O15492+P09471 | bead-based flow cytometry RGS16-Galphao binding, fluorescence; actives lie on both sides | binding response (% of control), % at 10 µM | actives 0.38% (n = 220,000);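 active = below 25% or above 175%, edge rows of some plates excepted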;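 note: Galphao activated by GDP with aluminum fluoride before binding; 100% = wells without compound and 0% = beads without RGS; some results beyond the cut were filed as inactive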
HSV replic up: increases HSV replication in cells; maximum fold increase; actives 0.005% (n = 220,000); HSV replication augmentation in cells, fold increase; AID 1956;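 active = peak rise of 1.5-fold or more in the series; inconclusive = self-fluorescent or not available for retest; tested in PC3 cells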;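 note: first round at 10 µM; read as green reporter fluorescence; hits show the peak of a series up to 25 µM; 1 = signal of infected wells without compound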
Insulin prom inh cell count: recorded beside Insulin prom inh, whose call it bears; normalized cell count, %; measured here: cell count, toxicity; reference of the scale not given here;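 cells exposed to compound for 48 h; stained nuclei by imaging scaled within each plate; lower means fewer cells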
HSV replic up primary fold: also measured in HSV replic up; calls as there; fold increase; compound at 10 µM; measured here: primary screen fold increase 10 uM; tested in PC3 cells;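 GFP signal in the first replicate; 1 = infected wells without compound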
An asterisk follows results filed as active; i = inactive; ? = inconclusive; nt = no result given.

# | compound | GALR2 agonist | PKD1 inh | Insulin prom inh | Insulin prom inh cell count | RGS16-Gao HTS | HSV replic up | HSV replic up primary fold
1 | COc1ccccc1N1CCN(C(=O)CSc2nnc3c4ccccc4n(CC(=O)O)c3n2)CC1 | -0.1 | 0 | 3 | 145 | 105 | i | 0.97
2 | N#CCc1nnc2n1-c1ccccc1CCC2 | -0.8 | -5 | 40 | 94 | 103 | i | 0.95
3 | O=C(Cn1nnc2ccccc2c1=O)NCCc1ccccc1 | -1.5 | -2 | nt | nt | 135 | i | 1.2
4 | N#CC1=C(N)OC2=C(C(=O)CCC2)C12C(=O)N1CCCc3cccc2c31 (centres undefined) | -0.6 | -1 | -8 | 125 | 95 | i | 1
5 | O=C(NNC(=O)c1ccc([N+](=O)[O-])cc1)NC1CCCCC1 | nt | nt | nt | nt | 97 | i | 0.97
6 | Nc1cc2c(cc1C(=O)c1ccccc1)OCCO2 | -1.9 | -4 | 18 | 52 | 104 | i | 1.1
7 | CN(C)S(=O)(=O)c1ccc(C(=O)Nc2nc3ccccc3[nH]2)cc1 | nt | 1 | nt | nt | 101 | i | 0.94
8 | COCCCN(C(=S)Nc1c(C)cc(C)cc1C)C(C)c1ccncc1 (centres undefined) | -0.7 | 0 | 0 | 168 | 101 | i | 1
9 | CC(=O)Oc1ccc2c(=O)c(N3C(=O)c4ccccc4C3=O)c(C)oc2c1C | nt | -2 | nt | nt | 105 | i | 0.96
10 | O=C(COC(=O)COc1ccccc1F)Nc1ccc(Cl)cn1 | nt | nt | nt | nt | 102 | i | 0.94
11 | COc1ccc(C(C)=O)cc1COC(=O)CNC(=O)c1ccc(Cl)cc1 | -0.2 | 2 | nt | nt | 65 | i | 1.1
12 | COCCCNc1nc2c(-c3cccc(C)c3)nnn2c2ccccc12 | nt | 0 | 50 | 54 | 112 | i | 0.88
13 | CCOc1ccc(-c2cn3ccccc3n2)cc1[N+](=O)[O-] | 0.6 | -6 | 6 | 195 | 102 | i | 0.98
14 | COC(=O)N1CCCc2cc(C)ccc21 | nt | 12 | nt | nt | 102 | i | 1
15 | COc1cccc(C2CC(c3ccccc3)Nc3ncnn32)c1 (centres undefined) | -1.0 | -3 | -6 | 99 | 102 | i | 1.2
16 | COc1ccc(CN2C(=O)CN=C2Nc2cccc(C)c2C)cc1 | -0.3 | -5 | nt | nt | 106 | nt | nt
17 | CC(C)CNC(=O)C1CCN(Cc2ccc(OCc3ccccc3)cc2)CC1 | -2.0 | 0 | -41 | 37 | 121 | i | 0.95
18 | COc1cc(/C=C/C(=O)c2cccc([N+](=O)[O-])c2)cc(OC)c1OC | -0.4 | -6 | 56 | 90 | 107 | i | 0.57
19 | Cc1cc(NC(=O)COn2nnc3ccc(S(C)(=O)=O)cc32)ccc1Br | nt | nt | nt | nt | 99 | i | 0.9
20 | CC(C)c1nc(SCC(=O)Nc2nc3c(s2)CCCC3)c2ccccc2n1 | -2.9 | -8 | 46 | 128 | 97 | i | 0.85
21 | O=C(C1=C(O)C(=O)N(Cc2ccco2)C1c1cccnc1)c1cc2ccccc2o1 (centres undefined) | -0.2 | -1 | 9 | 183 | 106 | i | 1
22 | CN(NC1OC(=O)c2ccccc21)c1ncc(Cl)cc1C(F)(F)F (centres undefined) | nt | nt | nt | nt | 102 | i | 0.93
23 | CC#CCCC(=O)N1C=Cc2ccccc2C1C#N (centres undefined) | 1.0 | -7 | -71 | 86 | 106 | i | 1
24 | O=C(c1ccccc1)c1ccc2nc(-c3ccco3)c(-c3ccco3)nc2c1 | nt | 5 | nt | nt | 90 | i | 1.1
25 | Cc1nn(S(=O)(=O)N2CCCCC2)c(C)c1Br | -2.5 | -5 | 47 | 101 | 100 | i | 1.2
26 | CN(CC(=O)NCCc1ccccc1)S(=O)(=O)c1ccccc1 | nt | -5 | nt | nt | 102 | i | 0.95
27 | O=[N+]([O-])c1ccc2nc(-c3ccccc3)oc2c1 | nt | 1 | -17 | 103 | 101 | i | 1
28 | CN(CC(=O)Nc1ccc2c(c1)OCCO2)S(=O)(=O)c1ccc(Br)s1 | -1.2 | -4 | 52 | 100 | 127 | i | 0.99
29 | O=S(=O)(NCC(c1ccco1)N1CCN(c2ccccc2)CC1)c1ccc(F)cc1 (centres undefined) | 0.8 | 3 | nt | nt | 103 | i | 1
30 | Cc1cc(C)n2ncc(C(=O)O)c2n1 | nt | -5 | nt | nt | 109 | i | 0.96
31 | CC(C)(C)c1nnc2sc(SCC(=O)c3ccc(Cl)cc3)nn2c1=O | -2.3 | -9 | 21 | 133 | 103 | i | 1
32 | N#Cc1c(NCCN)nc(NCc2ccccc2)c2c1CCN(Cc1ccccc1)C2 | -0.4 | -16 | 14 | 111 | nt | i | 0.77
33 | Cc1onc(C(=O)NN)c1-c1csc(COc2ccccc2)n1 | nt | nt | nt | nt | 97 | i | 0.98
34 | Cc1cc(NC(=O)CSc2nnc(-c3ccccc3)c(-c3ccccc3)n2)no1 | nt | -2 | -28 | 64 | 114 | i | 0.63
35 | O=c1[nH]cnc2sc3c(c12)CCCC3 | -1.8 | 1 | 50 | 85 | 99 | i | 0.99
36 | Cc1ccc(S(=O)(=O)N(C)C)cc1NC(=O)c1cncc(Br)c1 | 0.2 | -21 | 3 | 128 | 104 | i | 0.82
37 | COc1ccc(/C(O)=C2/C(=O)C(=O)N(Cc3cccnc3)C2c2ccncc2)cc1F (centres undefined) | -1.3 | 1 | -8 | 109 | 122 | i | 1.1
38 | CN(C)c1nc(N(C)C)n(C(=O)c2ccc(F)cc2)n1 | nt | 1 | 7 | 91 | 96 | i | 1.1
39 | CCc1cc2ccc(C)cc2nc1SCC(=O)Nc1c[nH]c(=O)[nH]c1=O | nt | -6 | 13 | 68 | 100 | i | 0.9
40 | COc1cccc(Nc2nc3ccccc3n2C(C)C)c1 | 0.1 | 6 | 62* | 113* | 105 | i | 0.91
41 | COCCNC(=O)c1cc(Sc2nnc(C)s2)nc2ccccc12 | nt | nt | nt | nt | 40 | i | 1.1
42 | Cn1c(NCc2cccs2)nc2ccccc21 | 0.3 | 1 | 24 | 199 | 101 | i | 1.1
43 | Cc1ccc(-c2ccc(/C=N/n3cnnc3)o2)cc1 | nt | nt | nt | nt | 107 | i | 1.1
44 | O=C(COC(=O)C1(c2ccc(Cl)cc2)CCCC1)N1CCc2ccccc21 | -0.4 | 0 | nt | nt | 100 | i | 1.2
45 | Cc1c(NC(=O)/C(C#N)=C\c2cccs2)c(=O)n(-c2ccccc2)n1C | -1.4 | -6 | nt | nt | 104 | i | 1.1
46 | Cc1ccc(C(=O)OCC(=O)c2c(N)n(C)c(=O)n(C)c2=O)cc1S(=O)(=O)N1CCCCC1 | -0.2 | 3 | 25 | 108 | 99 | i | 0.91
47 | O=C(CSc1nc(NS(=O)(=O)c2ccccc2)cc(=O)[nH]1)Nc1ccc(F)cc1 | -1.6 | 0 | nt | nt | 96 | i | 0.87
48 | CC1CCCN(c2ccc(/C=C(\C#N)c3nn(-c4ccccc4)c(N)c3C#N)cc2[N+](=O)[O-])C1 (centres undefined) | -1.6 | 2 | nt | nt | 97 | i | 1
49 | CNC(=O)c1cc2c(ccc3ccccc32)oc1=N | 0.3 | -11 | -205 | 46 | 98 | i | 0.95
50 | CCCNc1nc(C)cc(-c2cc(C(=O)NC3CCCC3)on2)n1 | nt | nt | nt | nt | 98 | i | 1.1
51 | Cc1ccc(S(=O)(=O)NC2CCCC(C(=O)O)C2)cc1 (centres undefined) | -0.9 | -9 | nt | nt | 100 | i | 1
52 | CCN(CC)c1ccc(/C=N/Nc2cccc(C)c2)c(O)c1 | -0.2 | -7 | nt | nt | 46 | ? | nt
53 | O=C(Cn1cnc2cc([N+](=O)[O-])ccc2c1=O)NCc1ccc(Cl)cc1 | nt | -9 | 25 | 53 | 101 | i | 0.9
54 | C#CCOCCOCCOCCNc1nc(N2CCN(C(=O)[C@H](CCC(=O)O)n3cc(C(N)Cc4ccc(O)cc4)nn3)CC2)nc(N2CCN(C(=O)[C@H](CCCCN)n3cc(C(N)[C@H](C)CC)nn3)CC2)n1 (some centres undefined) | nt | nt | nt | nt | 95 | i | 0.8
55 | Cc1ccccc1-c1nc(CS(=O)(=O)CC(=O)Nc2cc(F)ccc2F)c(C)o1 | -0.2 | -1 | nt | nt | 99 | i | 0.86
56 | COCCn1c(SCC(=O)NCc2ccco2)nnc1-c1c[nH]c2ccccc12 | -1.4 | -12 | nt | nt | 106 | i | 0.94
57 | Cc1c(Cl)cccc1NC(=O)c1cc(C2CC2)on1 | -0.6 | 9 | nt | nt | 103 | i | 1
58 | COc1ccc(C(=O)Nc2ccc(Cl)c(S(=O)(=O)Nc3ccccc3OC)c2)cc1 | -0.8 | -1 | nt | nt | 123 | i | 1.1
59 | Cc1ccc(NCCC(=O)c2cccs2)cc1Cl | 0.5 | 13 | 16 | 90 | 119 | i | 0.84
60 | COc1ccc2c(c1)nc(SCC(C)O)n2C (centres undefined) | 0.0 | -2 | -17 | 106 | 102 | i | 0.95

(further entries)
# | compound | GALR2 agonist | PKD1 inh | Insulin prom inh | Insulin prom inh cell count | RGS16-Gao HTS | HSV replic up | HSV replic up primary fold
61 | O=C(CNc1ccccc1)N/N=C/c1ccc2c(c1)OCCO2 | -0.6 | -7 | 31 | 109 | 95 | i | 1.1
62 | O=C(COC(=O)/C=C/c1ccc2c(c1)OCO2)Nc1ccc(S(=O)(=O)N2CCCC2)cc1 | -0.1 | 15 | -3 | 142 | 104 | i | 0.93
63 | O/N=C1\CCCc2ccc(Cl)cc21 | 0.6 | -5 | 28 | 159 | 105 | i | 0.98
64 | NC(=O)CSc1nnc2ccc(-c3ccc(Cl)cc3)nn12 | nt | 3 | 37 | 77 | 93 | i | 0.97
65 | CCCN(CC(=O)Nc1cccc(S(N)(=O)=O)c1)CC(=O)Nc1ccc(F)c(F)c1F | nt | nt | nt | nt | 99 | i | 1.3
66 | CCCCN(CCCC)c1nc(OC)nc(-n2nnc(C(C)=O)c2C)n1 | -0.5 | -1 | -46 | 160 | 95 | i | 0.86
67 | CC(=O)c1ccc(N=Cc2c(O)n(-c3cc(Cl)ccc3N3CCOCC3)c(=O)c3ccccc23)cc1 | -3.0 | -7 | 46 | 202 | 99 | i | 0.91
68 | O=C(OCc1csc(-c2ccccc2)n1)c1ccccc1O | nt | -4 | nt | nt | 98 | i | 1
69 | Fc1ccccc1COc1ccc2ccccc2c1CNc1nn[nH]n1 | nt | -3 | -82 | 123 | 111 | i | 0.88
70 | COc1ccc2c(c1)nc(SCC(=O)C(C)(C)C)n2C | -3.3 | -8 | nt | nt | 98 | i | 0.98
71 | Cc1cccc(NC(=O)CSc2nc3nc(C)cc(C)c3c(=O)[nH]2)c1 | -0.7 | -9 | -3 | 127 | 99 | i | 0.88
72 | O=C1/C(=C/c2cccc([N+](=O)[O-])c2)CSc2ccc(Cl)cc21 | nt | nt | nt | nt | 98 | i | 0.98
73 | COc1ccc(CNC(=O)CSc2cccc3cccnc23)cc1 | nt | nt | nt | nt | 97 | i | 0.99
74 | Cc1nn(C)c(C)c1S(=O)(=O)Nc1ccc2c(c1)OCO2 | -0.3 | 17 | nt | nt | 91 | i | 1
75 | O=C(O)/C(=C\c1ccc(Br)cc1)c1ccc(S(=O)(=O)N2CCCCC2)s1 | -0.4 | 11 | nt | nt | 48 | nt | nt
76 | COC(=O)Cc1cc(=O)oc2c(C)c(O)ccc12 | 1.3 | -5 | 0 | 112 | 101 | i | 1
77 | COc1ccc(-c2cc(C(=O)NC(Cc3c[nH]c4ccccc34)C(=O)O)c(C)o2)cc1OC (centres undefined) | -1.0 | 4 | 0 | 120 | 75 | i | 1.1
78 | O=C(CN1CCN(C2CCCCC2)CC1)Nc1cccc2ccccc12 | nt | -2 | nt | nt | 103 | i | 0.99
79 | CSc1nc2nc3c(cc2c(=O)n1-c1ccccc1C)CCCC3 | nt | nt | nt | nt | 97 | i | 1
80 | O=C(NC1CCCCC1)C1CCC(CNS(=O)(=O)c2cccc3nsnc23)CC1 (centres undefined) | -0.8 | 2 | nt | nt | 82 | i | 0.78
81 | COC(=O)COn1c(SCC(=O)OC)nc2ccccc2c1=O | -0.6 | 6 | -15 | 88 | 102 | i | 0.68
82 | COc1cc(CNCc2ccccn2)ccc1OCc1c(Cl)cccc1Cl | -0.5 | 6 | nt | nt | 99 | i | 0.68
83 | Cc1cc2c(=O)n(CC(=O)N3CCN(c4ccc(F)cc4)CC3)cnc2s1 | -0.4 | -8 | 42 | 83 | 97 | i | 0.86

Screening results (PubChem)
